Autofluor counter: counter-screen for toxin protease inhibitors: compound fluorescence | compound autofluorescence counterscreen, microsphere flow cytometry; hits give high values | 360,000 compounds, 3.1% hits | fluorescence intensity (test concentration not listed);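 active = at least 3 SD above the mean of all compounds, about 16000 in these data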;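 note: 100 nL of 1 mM stock went into each well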
The depositor's hits bear a star. Only part of the results is shown. The share of hits here may be higher or lower than overall.

The opening 4 entries, to show the layout:
SMILES	Autofluor counter
O=C1Nc2cc(C(=O)NCCCN3CCCC3)ccc2S/C1=C/c1cccc(Cl)c1	4055
CCC[C@H]1CN(c2ccccc2)C(=O)[C@@H]1CC(=O)NC	3421
C[C@H]1COC[C@@H](C/C=C/c2ccccc2)N1c1ccccc1	3796
CC1C(=O)N(Cc2cn(Cc3ccco3)nn2)CCS(=O)(=O)N1Cc1ccc(-c2ccncc2)cc1 (configuration not stated)	3734

Results (from the top)
SMILES	Autofluor counter
O=C1Nc2cc(C(=O)NCCCN3CCCC3)ccc2S/C1=C/c1cccc(Cl)c1	4055
CCC[C@H]1CN(c2ccccc2)C(=O)[C@@H]1CC(=O)NC	3421
C[C@H]1COC[C@@H](C/C=C/c2ccccc2)N1c1ccccc1	3796
CC1C(=O)N(Cc2cn(Cc3ccco3)nn2)CCS(=O)(=O)N1Cc1ccc(-c2ccncc2)cc1 (configuration not stated)	3734
Nc1[nH]c(C(=O)c2ccc(Br)cc2)c(-c2ccc(Br)cc2)c1C(=O)NCCc1c[nH]c2ccccc12	5596
O=C(NC1CC1)c1ccc(-c2cnc3cccnn23)cc1	2978
CCc1nc2ccc(C(=O)N3CCN(C(C)=O)CC3)cn2c1N(C=O)Cc1ccc(OC)cc1	3698
COc1ccc(NC(=O)c2cc3ccccc3oc2=O)cc1	2839
CC(C)CNC(=O)C1(C)CCCN1Cc1ccc(S(C)(=O)=O)cc1 (configuration not stated)	3435
C[C@@H]1CN([C@H](C)CO)C(=O)CCCn2nncc2CO[C@H]1CN(C)C(=O)Oc1cccc2ccccc12	3716
CCCCNc1c(-c2cccnc2)nc2nc(C)cc(C)n12	5673
CC(=O)NNc1nc(-c2ccccc2)c2cc(Cl)ccc2n1	3482
C[C@@H]1O[C@H](C2CCCC2)CC2=C1C(=O)OC(C)(C)O2	5259
O=c1[nH]c2ccccc2n1C1CCN(C(c2nnnn2C2CCCC2)C2CC2)CC1 (configuration not stated)	4294
COC(=O)C[C@H]1C[C@H]2c3cc(NC(=O)Nc4ccc(C(F)(F)F)cc4)ccc3O[C@H]2[C@@H](CO)O1	3482
O=C(NC(c1ccc(F)cc1)c1ccc2ccccc2n1)C1CCN(CCOc2ccc(Cl)cc2)CC1 (configuration not stated)	3320
COc1ccc(Cc2nc3ccc(C(=O)NCCc4ncccc4C)cc3o2)cc1OC	3899
O=C(NCCN1CCC(n2c(=O)[nH]c3ccccc32)CC1)c1cccc2c1-c1ccccc1C2=O	5163
COc1ccc(NC(=O)CCCOc2ccc(C(C)=O)cc2)cc1S(=O)(=O)N1CCCCC1	3687
COc1cccc(N2CCN(C(=O)C3CCN(C(=O)Nc4ccccc4)CC3)CC2)c1	3076
COc1ccc(-c2nc3c(C)cc(Br)cn3c2CC2CCCCC2)cc1OC	5431
COc1cccc(-c2cnc(C(O)c3ccc(CN4CCCC4)cc3)[nH]2)c1 (configuration not stated)	3379
CNC[C@@H]1Oc2cc(Br)ccc2S(=O)(=O)N([C@@H](C)CO)C[C@@H]1C	4036
COc1ccc(Cn2cc(CN(C)C3CN(Cc4cn(Cc5ccc(OC)cc5)nn4)S(=O)(=O)C3)nn2)cc1 (configuration not stated)	6349
CC(=O)N(c1ccccc1)c1ccccc1[N+](=O)[O-]	3732
Cc1cc(NC(=O)CSCC(=O)OCC(=O)c2ccc(Br)cc2)no1	3931
O=S(=O)(c1cccs1)N1CCCCC1	3773
O=C(NCc1ccccc1)/C(=C\c1ccc(F)cc1)NC(=O)c1ccco1	3919
CCc1nc2ccc(C(=O)Nc3cccc(OCC(=O)N(C)C)c3)cn2c1N(CC)CCN(C)C	3849
CCOC(=O)[C@]12CCCC=C1N(Cc1ccc3c(c1)OCO3)C(=O)[C@H](CC(=O)NCCCN1CCCC1=O)C2	4610

Fetched one by one from the list above (three):
SMILES	Autofluor counter
CCc1nc2ccc(C(=O)Nc3cccc(OCC(=O)N(C)C)c3)cn2c1N(CC)CCN(C)C	3849
COc1ccc(Cn2cc(CN(C)C3CN(Cc4cn(Cc5ccc(OC)cc5)nn4)S(=O)(=O)C3)nn2)cc1 (configuration not stated)	6349
COc1ccc(-c2nc3c(C)cc(Br)cn3c2CC2CCCCC2)cc1OC	5431

Next results
SMILES	Autofluor counter
C=CCSc1nnc(NC(=O)c2ccc3c(c2)OCCO3)s1	4109
C[C@H](CO)N1C[C@H](C)[C@@H](CN(C)S(=O)(=O)c2ccc3c(c2)OCCCO3)OCc2cnnn2CCCC1=O	3484
Cc1ccc(S(=O)(=O)N2CCCCC2)cc1NC(=O)C1COc2ccccc2O1 (configuration not stated)	3972
CN(Cc1cnn(-c2ccccc2)c1)C(=O)c1ccc(S(=O)(=O)NCc2ccco2)cc1	3985
CN(C)c1ccc(-c2csc(C(O)c3ccccc3)n2)cc1 (configuration not stated)	3457
O=C1C=C(N2CC2)c2ccccc2C1=O	3394
O=S1(=O)N[C@H](Cc2ccccc2)COc2cc(N3CCN(Cc4ccccc4F)CC3)ccc21	5760
CC(C)(C)c1ccc2cccc(F)c2n1	5910
COc1ccccc1OCC(=O)N/N=C(\C)c1ccc2ccccc2c1	3750
COc1ccc(CN2C(=O)C(CC(=O)NCCN3CCOCC3)CC(C(=O)N3CCCCCC3)=C2C)cc1 (configuration not stated)	6037
O=C(Nc1nnc([C@H]2C[C@H](O)[C@@H](CO)O2)s1)c1cccc(Cl)c1	3087
c1ccc2c(c1)nnn2-c1ccncc1	3347
CC(C)C[C@H]1CNC(=O)C(=O)N1C[C@@H]1CCCN1C[C@H](Cc1ccccc1)N1C[C@H](CC(C)C)N(CCc2ccccc2)C(=O)C1=O	4113
O=C(CNC(=O)c1ccccc1)OC(C(=O)O)c1ccc(F)cc1 (configuration not stated)	3932
CCCS(=O)(=O)NC(=O)C1(C)CCCN(C(=O)c2ccc(C(=O)OC)cc2)C1 (configuration not stated)	4063
CCCCCCCCN1C(=O)[C@H](CC(=O)NCc2cccc(C(F)(F)F)c2)C[C@@]2(C(=O)OC)CCCCC=C12	6285
CCOC(=O)N1CCN(C(=O)C[C@@H]2C[C@@]3(C(=O)OCC)CCC=C3N(Cc3ccc4c(c3)OCO4)C2=O)CC1	5604
Cc1nc2c(N)nn(C)c2nc1C	2964
CNC(=O)C[C@H]1C(=O)N(CCc2ccccc2)C[C@@H]1CSC	3047
COc1cc2c(cc1OC)CN(C(=O)CSC1=NCCS1)CC2	2915
O=C(COC(=O)CN1C(=O)C2CC=CCC2C1=O)Nc1cccc([N+](=O)[O-])c1 (configuration not stated)	3619
C[C@H](O)[C@@H]1C(=O)N2CCc3c([nH]c4ccccc34)[C@@H]2C[C@@H]1N(C)C(=O)c1cc(Cl)cc(Cl)c1	5723
Cc1cn([C@H]2C[C@H](O)[C@@H](CNCc3ccccc3OCCCN3CCOCC3)O2)c(=O)[nH]c1=O	3776
COc1ccc(NC(=O)C[C@H]2C(=O)N(Cc3ccccc3)C[C@@H]2c2ccc(OC)cc2)cc1	3759
CC(NC(=O)CN1c2cccc3cccc(c23)S1(=O)=O)c1ccccc1 (configuration not stated)	2801
CC1=C(C(=O)N(C(C)C)C(C)C)CC(CC(=O)NCCCCc2ccccc2)C(=O)N1Cc1ccc(F)cc1 (configuration not stated)	5452
Cc1ccc(C(O)c2ncc(-c3ccccc3)[nH]2)c(C)c1 (configuration not stated)	3502
COC(=O)[C@]12CCCCC=C1N(Cc1ccco1)C(=O)[C@H](CC(=O)N1CCN(C(=O)c3ccco3)CC1)C2	5645
O=C(O)c1cccc(NC(=O)c2ccccc2NC(=O)c2cccs2)c1	3981
Cc1ccc(C(NC(=O)C2CCN(CCOc3ccccc3)CC2)c2ccccn2)cc1 (configuration not stated)	3754
O=c1[nH]c2ccccc2n1C1CCN(CCOc2ccccc2)CC1	2904
COCCNC(=O)C1CCCN(Cc2ccc(C#N)cc2)CC1 (configuration not stated)	3710
CC1(C(=O)NCc2cccc(Cl)c2)Cc2c(-c3ccc4c(c3)OCO4)ccnc2O1 (configuration not stated)	3884
COc1cccc(-c2cnc(C(O)c3c(C)ccc4ccccc34)[nH]2)c1 (configuration not stated)	3865
COC(=O)[C@H]1C[C@H](OC(=O)Nc2c(C)noc2C)[C@@]2(O)CN(S(=O)(=O)c3ccc(C)cc3)CC2[C@H]1C(=O)OC (some centres not stated)	3826
CC(C)CNC(=O)c1ccc(-c2ccc(F)c(F)c2)c2ccoc12	3031
O=C(Nc1ccccc1)c1cc(C2CCCN(C(=O)c3ccc4c(c3)CCO4)C2)on1 (configuration not stated)	3817
Oc1ccc(C[C@@H](CN2CCCC2CN2C(=S)NC[C@@H]2Cc2ccccc2)N2C[C@H](Cc3ccccc3)N(CC3CCCCCC3)C2=S)cc1 (some centres not stated)	4893
COCCNC(=O)C1(C)CCN(C(=O)c2oc3ccccc3c2C)C1 (configuration not stated)	2911
CCOC(=O)C1=C[C@@H](C2CCCCC2)N(S(=O)(=O)c2ccc([N+](=O)[O-])cc2)[C@H]1c1ccccc1	5413
CCNC(=O)C1(C)CCN(C(=O)c2ccc(C#N)cc2)C1 (configuration not stated)	3649
CC1(C(=O)NS(=O)(=O)c2ccccc2)CCN1C(=O)CC1CCCC1 (configuration not stated)	3475
CC1(Oc2ccccc2)CCN(Cc2csc3ccccc23)C1 (configuration not stated)	4176
CN(CCO)c1cccc2c1S(=O)(=O)N[C@@H](Cc1ccccc1)CO2	4258
C[C@@H]1COc2cc(N3CCC[C@H]3CO)ccc2S(=O)(=O)N1	5987
Cc1ccc(C(=O)CCC(=O)N2CCN(C/C=C/c3ccccc3)CC2)cc1	3659
COc1ccc(S(=O)(=O)N2CCC(C(=O)NCCC(=O)Nc3ccccc3OC)CC2)cc1	3538
COc1ccccc1N1CCN(S(=O)(=O)c2ccc([N+](=O)[O-])cc2)CC1	3438
O=C(CCNC(=O)N1CC(=O)Nc2ccccc21)NCc1cccc(C(F)(F)F)c1	3410
Cc1ccc([C@@H]2C[C@H]3[C@@H](CN2S(=O)(=O)c2ccc(Cl)cc2)C(=O)C[C@@H](c2ccc(Cl)cc2)N3S(=O)(=O)c2ccccc2C)cc1	2870

Following part
SMILES	Autofluor counter
COc1cccc(CNc2nc(NCc3ccccc3)nc3ccsc23)c1	3939
O=C(c1cccs1)N1C[C@@H](O)[C@H](n2cc(C3CC3)nn2)C[C@@H]1c1ccc(Cl)cc1	3428
CCOC(=O)[C@]12CCC=C1N(Cc1ccco1)C(=O)[C@H](CC(=O)NCc1cccs1)C2	5172
COc1ccc(C(=O)NC2=NCCS2)cc1S(=O)(=O)N1CCOCC1	4197
CCOC(=O)C1(C)CCCCN1C(=O)c1ccoc1 (configuration not stated)	2971
OC(c1ccc(-c2ccccc2)cc1)c1ncc(-c2ccc(F)cc2)[nH]1 (configuration not stated)	3074
Cc1cn([C@H]2C[C@H](O)[C@@H](CCC(=O)NCc3cccc4ccccc34)O2)c(=O)[nH]c1=O	4201
Cc1ccc(S(=O)(=O)N(C)C[C@@H]2Oc3ncc(Br)cc3C(=O)N([C@H](C)CO)C[C@H]2C)cc1	3125
CCN(CC)c1cc2c(c3c1ccn3C)C1CCC2O1 (configuration not stated)	4476
CCc1nc2c(OCc3cccc(Cl)c3)cccn2c1N(C)C(=O)C(C)C	3866

Ordered by SMILES length (high to low): some entries from above.
SMILES	Autofluor counter
Cc1cn([C@H]2C[C@H](O)[C@@H](CCC(=O)NCc3cccc4ccccc34)O2)c(=O)[nH]c1=O	4201
O=C(c1cccs1)N1C[C@@H](O)[C@H](n2cc(C3CC3)nn2)C[C@@H]1c1ccc(Cl)cc1	3428
OC(c1ccc(-c2ccccc2)cc1)c1ncc(-c2ccc(F)cc2)[nH]1 (configuration not stated)	3074
COc1cccc(CNc2nc(NCc3ccccc3)nc3ccsc23)c1	3939
CCOC(=O)C1(C)CCCCN1C(=O)c1ccoc1 (configuration not stated)	2971

Continued.
SMILES	Autofluor counter
O=C(COC(=O)c1cccc(-n2cnnn2)c1)c1ccc(F)c(F)c1	3394
CC(C)Oc1ccc2ccccc2c1CNC[C@H]1O[C@@H](n2ccc(N)nc2=O)[C@H](O)[C@@H]1O	3698
O=C(C=Cc1ccc2c(c1)OCO2)C=Cc1ccc2c(c1)OCO2	3526
Cc1ccccc1-c1cnc(C(O)c2ccc(C(C)(C)C)cc2)[nH]1 (configuration not stated)	3343
Cc1ccc(S(=O)(=O)NC(=O)C2(C)CCN2C(=O)Cc2ccc(Cl)cc2Cl)nc1 (configuration not stated)	3969
CC(=O)Nc1ccc(-c2ccnc3c2CC(C)(C(=O)Nc2cccc(Oc4ccccc4)c2)O3)cc1 (configuration not stated)	3809
CC(C)CCNC(=O)c1cc(S(=O)(=O)N2CCC3(CC2)OCCO3)ccc1F	3543
CCOc1ccc(CNC(=O)C2CCCN(S(=O)(=O)N3CCC(C)CC3)C2)cc1OC (configuration not stated)	3885
COc1ccc(Cl)cc1NS(=O)(=O)c1cccc(C(=O)NCCCN2CCOCC2)c1	3085
COc1cccc(CNC(=O)CCNC(=O)N2CC(=O)Nc3ccccc32)c1	2944
C=CCC1CCCCC1=C(C#N)c1ccccc1 (configuration not stated)	3964
CC1(Cc2cccc(F)c2)C(=O)Nc2ccc(-c3cccnc3)cc21 (configuration not stated)	3238
C[C@@H]1CN([C@H](C)CO)C(=O)c2c(c3ccccc3n2C)-c2ccccc2CO[C@H]1CN(C)C(=O)Cc1ccccc1	3841
CCC1=C(Nc2ccccc2)COC1=O	2947
CS(=O)(=O)N1Cc2cc(C(=O)NCC3CC3)nc(-c3cccc(-c4cccnc4)c3)c2[C@@H]1CCO	6356
Cc1cn([C@H]2C[C@H](O)[C@@H](/C=C/C(=O)NCCc3ccc(S(N)(=O)=O)cc3)O2)c(=O)[nH]c1=O	4488
CCOC(=O)c1c(C)[nH]c(C)c1C(=O)COC(=O)c1nn(CC)c(=O)c2ccccc12	3966
CCOc1ccccc1Nc1cc(C)nc2ccccc12	3139
CCCCn1nnnc1C(c1cccc(OC)c1OC)N1CCC2(CC1)C(=O)NCN2c1ccccc1 (configuration not stated)	6016
CC1Cc2ccccc2N1C(=O)CSc1ccccn1 (configuration not stated)	3825
CCC(C(=O)NC(C)(C)C)N(Cc1ccc(OC)cc1)C(=O)c1snc(C(N)=O)c1N (configuration not stated)	3803
Cc1ccc(S(=O)(=O)N2CCOCC2)cc1NC(=O)COC(=O)c1ccco1	2936
O=C(NCc1ccccn1)[C@@H]1CCCN1C(=O)[C@@H]1CCCN1C(=O)c1cccs1	5222
OC[C@@H]1CN(CCN2CCOCC2)C[C@H](n2cnc3c(NCc4ccco4)ncnc32)O1	3843
CS(=O)(=O)c1ccc(-c2cccc(NC(=O)c3ccc4c(c3)OCO4)c2)nn1	3386

From PubChem
